# Compound activity: PubChem, National Center for Advancing Translational Sciences (NCATS)
# gsp antag – qHTS for Antagonists of gsp, the Etiologic Mutation Responsible for Fibrous Dysplasia/McCune-Albright Syndrome: qHTS. gsp-mutant cells, cAMP HTRF, 30 min; control for the full effect not named in the record. Potency, µM (doses to about 76.9 µM), for the others: top-dose activity change, negative = inhibition, most hits filed as inhibitors. 0.4% of 340,000 active; active = falling curve of any shape with a large fitted effect; inconclusive = falling curve, mostly with a smaller effect; inactive = flat or rising curve; cell line not stated here;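 also: intracellular cAMP measured with PDE inhibitor Ro 20-1724 present during compound exposure; potency is read from the fitted curve at half-maximal effect; % is scaled to controls: 0 for no effect and ±100 for the full control effect; nearly all actives have a fitted effect of over 65% in size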
#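 HTRF cAMP measurement after 30 min RT detection following 30 min, 37C compound treatment alongside […] (added as 300 uM solution) in G418-selected cells seeded at 2000/well and grown 16–24 h.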
# PINK1 expr mod – A Quantitative High throughput Screen to Identify Chemical Modulators of PINK1 Expression; 0.2% of 410,000 active; PINK1 immunofluorescence, high-content cytometry, 24 h; Potency, µM (titrated, usually from 76.6 µM), inactives show at the highest dose activation (PINK1 increase), most hits filed as activators; active = well fitted activation curve with a large enough effect; inconclusive = small, poorly fitted or top-dose-only effect; inactive = flat fitted curve, though single readings scatter; cell line not stated here;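 also: potency is read from the fitted curve at half-maximal effect; % of control where 0% means no effect; nearly all actives have a fitted effect of over 65% in size; a mitochondrial uncoupler was the plate control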
#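 Readout is PINK1 immunofluorescence, quantified alongside mitochondrial, cell and nuclear markers by laser-scanning microplate cytometry. Cells from a stable line were exposed to compound titrations (5 concentrations) for 24 hours, with CCCP controls.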
# gsp agonist – qHTS for Agonist of gsp, the Etiologic Mutation Responsible for Fibrous Dysplasia/McCune-Albright Syndrome: qHTS. gsp mutant cells, cAMP HTRF, 30 min; control for the full effect not named in the record. Potency, µM (series often up to 76.9 µM), without a hit: at the highest dose activation (cAMP increase), hits mostly activators. 0.13% of 340,000 active. AID 624287, 2012; active = well fitted activation curve with a large enough effect; inconclusive = small, poorly fitted or top-dose-only effect, or another doubt; inactive = no such curve, though single readings can be large or run the other way; cell line not stated here;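 also: phosphodiesterase inhibitor Ro 20-1724 added with compounds to block cAMP breakdown; potency is read from the fitted curve at half-maximal effect; nearly all actives have a fitted effect of over 60% in size; about a fifth of the inactives were tested at one dose only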
#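 Cells stably selected in G418 were plated at 2000/well, grown 16-24 hr, then given compounds in DMSO with the PDE inhibitor […] (300 uM solution added) for 30 min at 37C; cAMP was read by HTRF.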
# D2 agonist – Beta-Arrestin HTS for Positive Allosteric Modulators of the Human D2 Dopamine Receptor: Agonists; D(2) dopamine receptor (Homo sapiens), P14416; DiscoveRx PathHunter D2 beta-arrestin, luminescence, 90 min; 100% = 57 uM dopamine signal; activation, % (concentration not given with the values); 0.084% of 360,000 active; in the data active = activation above about 40%; inconclusive = about 15% to 40%; inactive = below about 15%; also: compound concentration not given in the record; the text of the record calls up to 30% inactive
# Target sequence (P14416 whole entry, looked up): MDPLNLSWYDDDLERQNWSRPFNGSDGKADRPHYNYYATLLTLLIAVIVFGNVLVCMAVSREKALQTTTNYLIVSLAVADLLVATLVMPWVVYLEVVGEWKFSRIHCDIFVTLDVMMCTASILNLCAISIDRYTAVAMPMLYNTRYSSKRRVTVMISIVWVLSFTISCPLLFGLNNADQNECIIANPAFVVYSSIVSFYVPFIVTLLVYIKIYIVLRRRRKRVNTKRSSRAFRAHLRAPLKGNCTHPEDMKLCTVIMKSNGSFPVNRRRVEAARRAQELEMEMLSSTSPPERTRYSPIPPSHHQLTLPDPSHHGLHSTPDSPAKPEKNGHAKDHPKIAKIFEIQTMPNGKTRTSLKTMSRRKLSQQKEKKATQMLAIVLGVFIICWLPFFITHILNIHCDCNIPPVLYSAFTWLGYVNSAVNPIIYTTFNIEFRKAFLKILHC
#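 DiscoveRx PathHunter D2 beta-arrestin cells (2,100/well) attached overnight, then compound-stimulated 90 min at 37 C in HBSS/10 mM HEPES/0.1% Tween-20 buffer; beta-galactosidase complementation read by luminescence after 1 h at ambient temperature. Dopamine 57 uM final (EC100) as control.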
# ClpP mod – qHTS Assay for Activators of ClpP. ATP-dependent Clp protease proteolytic subunit (Bacillus subtilis (strain 168)), P80244. purified B. subtilis ClpP, FRET peptide cleavage, 20 min. Potency, µM (doses to about 57.5 µM), inactives show top-dose activity change, negative = active. 1.9% of 340,000 active; active = well fitted falling curve with a large enough effect; inconclusive = small, poorly fitted or top-dose-only effect; inactive = no such curve, though single readings can be large or run the other way; also: potency is read from the fitted curve at half-maximal effect; the source files actives as falling curves though it sought activators and does not explain the sign; nearly all actives have a fitted effect of over 65% in size; many hits overshoot -100%
# Target sequence (P80244 whole entry, looked up): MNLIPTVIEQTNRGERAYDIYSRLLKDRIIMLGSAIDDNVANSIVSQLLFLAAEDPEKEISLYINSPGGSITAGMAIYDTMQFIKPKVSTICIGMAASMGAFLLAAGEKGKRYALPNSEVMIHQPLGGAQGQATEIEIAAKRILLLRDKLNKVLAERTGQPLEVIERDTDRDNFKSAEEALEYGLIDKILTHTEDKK
#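 FRET quenching reversal measured ClpP activation: 10 microg/mL B. subtilis ClpP at pH 8 with the FRET-FV decapeptide, read at 430 nm after 320 nm excitation. The 20-min minus 0-min signal was scaled between DMSO/no-enzyme wells and ADEP (5.8 microM final).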
# Menin-MLL FL inh – qHTS Assay for Inhibitors Targeting the Menin-MLL Interaction in MLL Related Leukemias: Competition With Fluorescein Labeled MLL-derived Peptide; Fluorescence polarization, fluorescein-MLL peptide displacement from menin; FP activity change, % at 61.4 µM; 290,000 tested, under 10 active; inconclusive = falling polarisation curve, or a change in total fluorescence; inactive = total fluorescence flat and polarisation flat or rising; no compound was filed as active; the % refers to the polarisation; negative = inhibition;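 also: % of control where 0% means no effect; inhibitors lower the polarisation; unlabelled MLL peptide was the positive control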
# Sfp inh – qHTS Assay for Inhibitors of Bacillus subtilis Sfp phosphopantetheinyl transferase (PPTase). 3.5% of 310,000 active. AID 1490, 2009. 4'-phosphopantetheinyl transferase ffp (Bacillus subtilis), Q9F4F7. Potency, µM, for inactives: max response, negative = inhibition, hits mostly inhibitors. Biochemical Sfp PPTase activity, qHTS; active = well fitted inhibition curve with a large enough effect; inconclusive = small, poorly fitted or top-dose-only effect, or another doubt; inactive = no such curve, though single readings can be large or run the other way;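 also: the enzyme is Sfp with the accession as filed and its product quenches rhodamine fluorescence; potency is read from the fitted curve at half-maximal effect; 0% = enzyme reaction without inhibitor and -100% = no enzyme wells; top concentration of the series not given in the record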
#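 Compounds were incubated with enzyme (final 15 nM) for 15 min at room temperature before substrate addition started the reaction. Fluorescence at 525 nm excitation, 598 nm emission was recorded immediately and after 30 minutes.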
# An asterisk follows results filed as active; ? = inconclusive; nt = not tested or not shown; & = joins results of further samples; ! = a repeat was not active; [ ] = dose if it differs, or a comment.
SMILES,gsp antag,PINK1 expr mod,gsp agonist,D2 agonist,ClpP mod,Menin-MLL FL inh,Sfp inh
O=[N+]([O-])c1ccccc1CN1CCN(S(=O)(=O)Cc2ccccc2)CC1,0%,-0.8%,-31%[inhibitor],-1.1,-1.5%,-3.3,?
CCN(c1cccc(C)c1)S(=O)(=O)c1ccc2c3c(cccc13)C(=O)N2,-30%,-1.9%,-1%,2.3,-10.0%,-1.8,-13%
O=C(Nc1ccc([N+](=O)[O-])cc1)Nc1ccc2c(c1)OCCO2,-11%,2.4%,-21%[15.4 µM],-8.4,nt,-2.1,?
C=CCNc1ncnc2c1ncn2[C@H]1CN(Cc2ccc3c(c2)OCO3)C[C@@H](CO)O1,nt,0.8%,nt,-4.9,-1.0%,nt,nt
COc1cc(Cl)c(S(=O)(=O)N2CCCC2)cc1Cl,7%,1.6%,-10%,-3.7,nt,-2.7,0%
O=C(CN(c1ccc2c(c1)OCCO2)S(=O)(=O)c1ccccc1)N1CCN(Cc2ccccc2)CC1,-4%,1.4%,-4%[15.4 µM],-3.2,32µM*,-0.7,11%
O=C(Nc1ccc2c(c1)OCO2)c1c(F)c(F)c(F)c(F)c1F,1%,-1.9%[38.3 µM],20%,2.6,1.9%,4.2,6%
CCOC(=O)c1ccoc1CSCc1ccc(C(=O)OC)o1,4%,-1.8%,6%,-4.4,0.6%,10,?
COc1ccc(C(O)P(=O)(OCC(C)C)OCC(C)C)c(OC)c1 (centres undefined),14%,0.2%,-27%,-1.8,-1.1%,2.0,-6%
O=c1[nH]c(NCc2ccccc2)nc2c1CCCC2,-7%,-1.9%,15%,-0.8,-2.5%,-2.2,-2%
COc1ccc(CN(C)C(=O)/C=C/c2ccc(S(=O)(=O)N3CCCCCC3)cc2)cc1,-8%,1.6%,20%,-1.6,-1.4%,nt,nt
CS(=O)(=O)N1CCN(c2ccc(NC(=S)NC(=O)c3cccs3)cc2)CC1,4%,?,-1%,-1.4,-1.9%,2.2,8%
CCc1cccc(NC(=S)Nc2ccc(CN3CCOCC3)cc2)c1,1%,5.1%,-2%[15.4 µM],-5.7,nt,3.4,-1%
Cc1n[nH]c(C)c1CCCCOc1ccccc1F,0%,-0.3%,0%[15.4 µM],0.6,nt,4.4,17%
Cc1ccc2[nH]c3c(c2c1)CN(C(=O)CN1c2ccc(F)cc2CCC1C)CC3 (centres undefined),7%,0.6%,?,2.6,-5.2%,4.6,6%
COc1cccc(OC(=O)c2ccccc2)c1OC(=O)c1ccccc1,-21%,3.1%,-18%,-1.3,-4.7%,nt,nt
Cc1cc(C)n2nc(/C(C#N)=C/c3ccccn3)c(C#N)c2n1,-1%,16%,3%,-3.6,nt,0.1,16%
CCCCSCCCNC(=O)Nc1ccc(CC)cc1,-26%,0.4%,-4%[15.4 µM],-2.2,nt,0.0,19%
CN(c1ccc(C(=O)N2CCN(Cc3ccccc3)CC2)cc1)S(=O)(=O)c1ccccc1,-5%,0.7%,-11%,?,nt,-1.2,8%
CCNC(=O)C1(C)CCN1CCC(=O)c1ccc(C)cc1 (centres undefined),nt,2.4%,nt,-1.1,0.6%,nt,nt
COc1ccccc1OC(C)C(=O)NNC(=S)NC1CCCC1 (centres undefined),nt,-0.3%,12%[15.4 µM],1.3,nt,-0.1,14%
COc1ccc(NC(=O)C[C@H]2C(=O)N(Cc3cccnc3)C[C@@H]2Cc2ccccc2)cc1,nt,1.4%,8%,0.1,1.4%,nt,nt
O=C(CSc1ccccn1)N/N=C/c1cccc([N+](=O)[O-])c1,-6%,-0.2%,-3%[15.4 µM],0.0,1.2%,8.3,1%
COc1ccc(NC(=O)COC(=O)c2cc(SC)ccc2Cl)c(OC)c1,23%,11%,-5%[15.4 µM],-1.6,-0.3%,1.6,-14%
CCCN1CCN(C(=O)c2ccc3[nH]c(C)c(C)c3c2)CC1,nt,1.3%,-49%[inhibitor],-2.8,3.2%,nt,nt
CCCS(=O)(=O)c1nc(S(=O)(=O)c2ccc(C)cc2)c(NCCCN(C)C)s1,15%,2.6%,?,-3.1,-0.8%,-2.9,-5%
Cc1ccc(NC(=O)C2CC(=O)n3ncnc3N2)cc1 (centres undefined),4%,0.2%[38.3 µM],-37%,-0.8,0.6%,0.7,0%
Cc1nn(-c2ccccc2)c(Cl)c1/C=C1\SC(=S)N(CCCCCC(=O)O)C1=O,?,-1.2%,?,-1.6,0.3%,1.4,-4%
O=C(COC(=O)c1ccccn1)Nc1cccc(Cl)c1,-2%,-2.5%,-4%,-1.6,-1.8%,4.8,13%
CCS(=O)(=O)c1ccc2c(c1)NC(=O)C(CCO)O2 (centres undefined),10%,0.1%,0%[15.4 µM],4.4,-2.7%,-0.1,13%
CCOC(=O)C1CCN(C/C=C/c2ccccc2[N+](=O)[O-])CC1,6%,-0.6%,-8%[15.4 µM],1.5,-1.7%,-0.2,-16%
Cc1cc(-n2c(C)cc(C(=O)CSc3nnnn3-c3ccc(Cl)cc3)c2C)no1,-2%,nt,-26%,2.4,1.5%,2.7,-23%
Cc1noc(C)c1COC(=O)C1CCN(C(=O)c2ccc(Cl)cc2)CC1,-11%,-0.1%,-12%[15.4 µM],-1.7,nt,-0.1,9%
O=C(Cc1cccc(NC(=O)C2CCCN(C(=O)C3CCC3)C2)c1)Nc1ccc(C(=O)N2CCOCC2)cc1 (centres undefined),1%,2.6%,nt,-4.4,-0.9%,nt,nt
CC(=O)Nc1ccc(/C=C/c2nc(-c3ccccc3O)n[nH]2)cc1,-2%,12%,3%,0.1,-25%,-8.6,19%
COCCNC(=O)C(c1ccco1)N(C(=O)Cn1nnc2ccccc21)c1cccc(C)c1C (centres undefined),-11%,-0.6%,4%,-6.4,0.0%,5.2,11%
COc1ccc2c(Cl)c(C(N)=O)sc2c1,9%,-4.9%,?,-4.6,0.7%,2.9,6%
CCN(CC(=O)Nc1ccc(NC(C)=O)cc1)C(=O)CCCSc1nc2ccccc2[nH]1,6%,0.1%,-12%[15.4 µM],-4.4,nt,nt,nt
C[C@@H]1CN([C@@H](C)CO)C(=O)c2cc(NS(C)(=O)=O)ccc2O[C@@H](C)CCCCO[C@H]1CN(C)C(=O)Nc1ccc2c(c1)OCO2,nt,-0.7%,-25%,-3.6,-2.0%,nt,nt
O=C(C[n+]1ccc(C(=O)c2ccccc2)cc1)Nc1ccccc1OC(F)F,12%,-1.2%,22%,1.8,nt,nt,nt
C[C@H](CO)N1C[C@H](C)[C@@H](CN(C)C(=O)Nc2ccc(C(F)(F)F)cc2)Oc2ccc(NC(=O)c3ccncc3)cc2C1=O,4%,4.7%,nt,-2.0,0.8%,nt,nt
Cc1noc(C)c1COC(=O)c1cccnc1Cl,15%,0.3%,-8%[15.4 µM],-4.4,nt,-0.3,25%
CC(C)(C)c1ccc(C(=O)N2CCN(Cc3ccccc3)CC2)cc1,6%,6.3%,9%,-2.3,1.3%,0.4,4%
Fc1ccc(Nc2c(-c3ccco3)nc3ccccn23)cc1,-13%,7.4%&8.7%,0%,4.0,28µM*!,4.2,?
Cc1cnc(C(=O)OCC(=O)c2ccc[nH]2)cn1,8%,-1.3%,0%[15.4 µM],-5.8,-0.8%,nt,nt
CCCCOC(=O)c1ccc(NC(=O)CSC2=Nc3ccccc3C3CC=NN23)cc1 (centres undefined),10%,-1.4%,19%,-4.9,-8.0%,3.6,-4%
COc1ccc(C2NCCc3sccc32)cc1 (centres undefined),8%,-1.6%,-14%[15.4 µM],-2.5,nt,-1.6,13%
O=C(COc1ccccc1)NCCSc1ccccc1,-16%,1.0%,-25%,-4.0,1.6%,-1.2,7%
CCOC(=O)c1cccc(NC(=O)c2cnccn2)c1,5%,0.5%,-19%,-3.7,-0.5%,-3.5,2%
CC1CCCCN1CCCNC(=O)C1CCN(c2nnc(-n3cccc3)s2)CC1 (centres undefined),12%,-1.5%,?,-3.5,-0.5%,-2.0,16%
O=C(C1COc2ccccc2O1)N1CCN(c2ccccn2)CC1 (centres undefined),-1%,-2.1%,?,-1.7,?,nt,nt
Cc1oc(C(=O)O)cc1COc1ccc2c3c(c(=O)oc2c1)CCC3,-1%,nt,24%,-0.8,28µM*,-2.7,2%
Nc1nnc2c(C(F)(F)F)nc3ccccc3n12,3%,-0.1%,?,3.4,nt,-1.6,14%
O=S(=O)(Nc1ccc2c(c1)OCCO2)c1ccc(F)cc1,-6%,15%[38.3 µM],25%,3.1,-1.5%,-0.8,-2%
CCOc1ccc(Br)cc1S(=O)(=O)Nc1nc(CN2CCOCC2)nc2sc(C)c(C)c12,-8%,-2.2%,5%,1.0,1.3%,?,-1%
CCO[C@@H]1OC(C(=O)N2CCN(Cc3ccc4c(c3)OCO4)CC2)=C[C@H](C)[C@H]1CCCO,8%,-0.6%,4%,3.0,-2.9%,0.0,0%
CCSc1nc2sc3c(c2c(=O)n1CC)CC(C)(C)OC3,5%,9.2%,-19%,-0.9,-3.7%,0.9,-16%
COc1ccccc1NC(=O)CCNS(=O)(=O)c1ccc2c(c1)CC(C)N2C(=O)C1CC1 (centres undefined),-21%,-0.7%,-30%,3.0,-0.4%,-2.1,12%
Cc1onc(-c2ccccc2)c1C(=O)Nc1ccccc1N1CCOCC1,-19%,1.4%,-30%,-2.6,-1.7%,-2.6,-5%
COc1ccc(NC(=O)c2cc(-c3cc(F)ccc3OC)n[nH]2)cn1,nt,1.7%,nt,-2.8,-7.2%,nt,nt
O=C(COc1ccccc1-c1ccccc1)NCc1cccc(Cl)c1,-23%,?,-16%,-3.6,-3.1%,5.8,-20%
